NPYLR7 ag – agonists of mosquito NPYLR7 receptor, primary screen, cell-based, Aedes aegypti, calcium fluorescence, mosquito biting behavior; Aedes aegypti neuropeptide Y-like receptor 7 (NPYLR7); HEK293T NPYLR7/Galpha15, GCaMP6s calcium fluorescence; activation, % at 10 µM; actives 0.15% (n = 270,000); AID 1259423, 2018; in the data active = activation above about 40%;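 note: 0% = vehicle and 100% = reference agonist at the receptor; some compounds past the cut are filed as inactive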
NPYLR7 ag max-min – also measured in NPYLR7 ag; calls as there; activation, %; measured here: Max-Min RFU normalised activation; some inactives read as strong as hits;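 span of the calcium signal over five minutes; 0% = vehicle and 100% = native peptide agonist; compound fluorescence can raise it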
Starred values were filed as active, the others as inactive. A portion of the library; rates above refer to the full screens.

Sequence of screens: NPYLR7 ag max-min	NPYLR7 ag
CN1CCN(C(=O)c2ccc(CSc3nnc(Cc4ccccc4)n3-c3cccc(C(F)(F)F)c3)cc2)CC1
  25	26
Cc1ccccc1Cn1cnc2c(cnn2CCNC(=O)c2cc(-c3ccco3)[nH]n2)c1=O
  -5	-1
CC(=O)c1c[nH]c(C(=O)NC2(C)CCS(=O)(=O)C2)c1 (stereo not given)
  11	2
CC(=O)Nc1nc(C)c(S(=O)(=O)N2CCC3(CCN(C)CC3)C2)s1
  6	8
O=C(NCc1ccco1)c1cccn2c(=O)c3sccc3nc12
  -1	0
CCCc1ccc(C2(C)NC(=O)N(CC(=O)N3CCN(S(=O)(=O)c4ccccc4)CC3)C2=O)cc1 (stereo not given)
  1	2
CCOC(=O)C(C#N)=Cc1ccc(N2CCN(C)CC2)cc1
  -4	-1
O=C1Nc2ccccc2C12OCC(CO)([N+](=O)[O-])CO2 (stereo not given)
  -4	0
O=C(O)CCCNc1ncnc2sc3c(c12)CCCC3
  52	1
Cc1ccccc1Cn1c(C)c(N2CCOCC2)c(C)c1C(=O)NCc1cccc(C(F)(F)F)c1
  12	6
CCOc1ccc2nc(N(Cc3cccnc3)C(=O)c3ccc4c(c3)OCCO4)sc2c1
  -9	-9
C[N+](C)(C)C[C@H](O)CC(=O)O
  11	11
COC(=O)c1ccc(Cn2nc(C3CCN(S(C)(=O)=O)CC3)n(C)c2=O)cc1
  2	-4
COc1ccc(COc2ccc(-c3noc(C)n3)cc2)cc1F
  3	0
CC(=O)N1CCN(C(=S)c2cccc([N+](=O)[O-])c2)CC1
  -6	-3
Cc1ccc(C(N)=O)c(N2CCC(O)(CO)CC2)n1
  -7	4
COCCN(Cc1ccc(C)cc1)C(=O)CC1NC(=O)c2ccccc21 (stereo not given)
  -6	-1
CCOC(=O)Cn1nc(C(F)(F)F)c(Br)c1C1CC1
  -3	-1
CNc1snc(C)c1C(=O)NC(C)c1cccc(NS(C)(=O)=O)c1 (stereo not given)
  -5	-3
O=C(CCN(CCc1ccccc1)c1nc(-c2ccco2)nc2ccccc12)NCc1ccco1
  -21	-30
CC(C)N(C(=O)C1CC(=O)OC12CCCCC2)C(C)C (stereo not given)
  0	2
CC(C)N(Cc1nccn1C)C(=O)CC1C(=O)NCCN1Cc1cccc(C(F)(F)F)c1 (stereo not given)
  -3	1
NS(=O)(=O)c1ccc(-c2ccc(-n3cnnn3)cc2)cc1
  3	4
Cc1cccc(C2NC(=O)NC3=C2C(=O)N(CC2CCCO2)C3)c1 (stereo not given)
  12	3
COc1c2c(nc3occc13)C(CC=C(C)C)(OC)C(O)CC2 (stereo not given)
  -4	-3
O=C(CNC(=O)c1ccncc1)N=Nc1c(O)[nH]c2ccccc12
  -4	-1
COc1ccc(N2CCN(C(=O)C3CC=CCC3C(=O)N[C@@H]3CCCc4ccccc43)CC2)cc1 (stereo not given in full)
  -16	-10
O=C(c1cc(-c2ccccc2F)nc2cc(-c3ccccc3)nn12)N1CCCCC1
  16	14
O=C(COc1coc(CN2CCN(Cc3ccccc3)CC2)cc1=O)NC1CCCCC1
  2	3
Cc1nn(C(=O)c2ccco2)c(C)c1CN1C(=O)c2ccccc2C1=O
  3	4
CN(CCOc1ccccc1)C(=O)C1CC(O)CN1C(=O)OC(C)(C)C (stereo not given)
  -5	-3
N#CC(=Cc1ccco1)c1nc(-c2ccc3c(c2)OCO3)cs1
  10	16
C=c1oc(C)cc1=C1NN=C(CCC(=O)N2CCCCC2c2cccnc2)O1 (stereo not given)
  1	3
COc1ccc(C(=O)N(Cc2nccn2Cc2ccccc2F)C2CC2)cc1
  0	-13
CCOC(=O)c1cc(-c2ccc(F)cc2)n(C2CCN(S(=O)(=O)c3cccc(C)c3)CC2)n1
  11	16
CC1CCc2c(c3ccccc3[nH]c2=O)O1 (stereo not given)
  -4	-1
Cc1ccc(-c2cnc(C(O)c3c(C)cccc3C)[nH]2)cc1 (stereo not given)
  -1	0
O=C(NC1CCC(NC(=O)[C@H]2CCCN2C(=O)Cc2cccs2)CC1)c1ccccc1 (stereo not given in full)
  6	1
O=C(/C=C/c1ccco1)N(CC1CCN(C2Cc3ccccc3C2)CC1)CC1CCCO1 (stereo not given)
  13	15
O=C(Nc1ccncc1NC(=O)c1nc2ccccc2s1)c1nc2ccccc2s1
  8	2
COCCCN(CC(=O)N(CCc1c[nH]c2ccccc12)Cc1ccc(C(F)(F)F)cc1)C(=O)c1ccc([N+](=O)[O-])cc1
  -12	-11
Fc1ccc(N2N=C(c3cccs3)CC2c2ccccc2)cc1 (stereo not given)
  -13	-8
CCOCCCNc1nc(Nc2ccc(C)cc2)c2cnn(-c3ccccc3)c2n1
  0	2
O=C(Nc1cccc(Cl)c1Cl)N1CCSC1c1ccccc1OCc1ccccc1 (stereo not given)
  30	27
CCOC(=O)C1CCCN(C(=O)CC(c2cccc(OC)c2OC)c2c[nH]c3c(CC)cccc23)C1 (stereo not given)
  19	17
CCC1=NN(C(=O)c2ccncc2)C(O)(C(F)(F)F)C1 (stereo not given)
  2	2
O=c1cc(CSc2nnnn2C2CCCC2)nc2sccn12
  -3	-1
O=C(Nc1nccs1)c1ccc2[nH]c3c(c2c1)CCCC3
  3	3
Cc1cc(CNC(=O)C2CCN(c3ccc(C(F)(F)F)cc3[N+](=O)[O-])CC2)ccc1F
  15	6
COC(=O)c1ccc(Cn2nc(C)c3cnn(-c4ccc(F)cc4)c3c2=O)o1
  8	9
Cc1ccc(S(=O)(=O)N(Cc2cccc(OS(=O)(=O)c3ccc(F)cc3)c2)C(C)C)cc1
  8	-3
CCCCNc1nnc(SCC(=O)c2c(N)n(CCC)c(=O)[nH]c2=O)s1
  10	3
Fc1ccccc1-c1cnnc(N2CCN(CCOc3ccccc3)CC2)n1
  5	8
Cc1noc(CN2CCC(C(=O)Nc3ccc(Br)cc3)CC2)n1
  2	-1
CCC1CCCCN1S(=O)(=O)c1cccs1 (stereo not given)
  -2	2
COc1ccc2c(=O)c3c(oc2c1)C(=O)N(c1nccs1)C3c1ccccn1 (stereo not given)
  1	3
CC(C)CN(C(=O)CN1CCCCCC1)c1c(N)n(CC(C)C)c(=O)[nH]c1=O
  -3	0
COc1ccccc1-c1nc2ccccn2c1Nc1c(C)cccc1C
  11	9
COc1cc(Cl)ccc1OCc1cc(C(=O)N2CCN(C)C[C@@H]2c2ccccc2)no1
  -9	-3
Cc1cc(Cl)c2oc(C(=O)N3CCN(c4cccc(C)n4)CC3)c(C)c2c1
  -5	-1

Later entries:
Sequence of screens: NPYLR7 ag max-min	NPYLR7 ag
O=C(CSc1nnc(Cc2cccs2)n1C1CC1)NC1CCCC1
  3	3
O=C(CCNC1CCC2(CCNCC2)CC1)Nc1nccs1
  1	14
Cc1nc(C)c(Cc2ccccc2Cl)c(N2CCN(C(=O)c3ccc(Br)cc3)CC2)n1
  9	13
Cc1cnc(C)c(N2CC(c3ccncc3)C2)n1
  14	25
CCn1cc(C(=O)N2CCN(Cc3ccccn3)CC2)c2nn(-c3ccccc3)c(=O)c-2c1
  -7	-1
CN1CCC(Nc2cc(Cl)ccc2N2CCCC2)C1=O (stereo not given)
  3	7
COC(C(=O)Nc1ccc(-n2ccnc2C)c(F)c1)c1ccccc1 (stereo not given)
  4	11
Cn1c(=O)n(Cc2ccc(Br)cc2)c(=O)c2c1nc1n2CCCN1Cc1ccccc1
  4	6
CCCN(Cc1nc(C(=O)OC)cs1)C(=O)Nc1cc(OC)cc(OC)c1
  -1	-3
C[C@H]1[C@H]2CC[C@H]3[C@@H]4CC=C5C[C@@H](N(C)C)CC[C@]5(C)[C@H]4CC[C@]23CN1C
  -9	-7
Cc1ccsc1S(=O)(=O)NC(CC(C)C)c1nnc2n1CCNCC2 (stereo not given)
  2	4
COc1cccc2c1OCC(n1cc(-c3sccc3C)nn1)C2 (stereo not given)
  2	4
COc1ccccc1-c1cccc(C(=O)NCc2cnc(C)cn2)c1
  -2	5
Cc1nn(C(C)C(=O)N2CCN(C(=O)c3ccco3)CC2)c(=O)c2cc3occc3n12 (stereo not given)
  1	3
CCOc1ccccc1-c1nc(C(N)=O)c2[nH]c(=O)n(-c3ccccc3OCC)c2n1
  2	9
CC(C)CC(=O)NCCn1nc(-c2cccs2)ccc1=O
  2	5
O=C(CSc1nc(=O)n(Cc2ccncc2)c2c1CCC2)NC1CCCC1
  11	24
Cc1nc(CSc2ccc(C(=O)NC3CCCC(C(F)(F)F)C3)cc2)cs1 (stereo not given)
  8	12
Cc1c(C(=O)NNS(=O)(=O)c2ccccc2F)oc2ccccc12
  9	8
COc1ncccc1-c1ccc(S(N)(=O)=O)cc1F
  0	3
COc1ccc(N(C)S(=O)(=O)c2ccc(OC)c(N3CCN(C(=O)CCCCCCl)CC3)c2)cc1
  -7	9
CC1CCCC(NC(=O)CS(=O)(=O)c2nccn2-c2ccccc2)C1C (stereo not given)
  23	-1
CC(=O)c1cnn(CN2CCC(CN3CCCCCC3)CC2)c1C
  -1	1
COC(=O)c1ccccc1C(=O)N1CCCC(CCC(=O)Nc2ccc(F)cc2C)C1 (stereo not given)
  -8	-7
CSCCNC(=O)CC1C(=O)NCCN1CC(c1ccccc1)c1ccccc1 (stereo not given)
  -2	0
COc1nsc(I)c1C#N
  -2	1
Cc1cc(-n2c(C)cc(C(=O)CN3CCN(CC(=O)NC4CC4)CC3)c2C)no1
  0	4
CCCCn1c(=O)[nH]c(=O)c2cc(C(=O)NCc3cccc(OC)c3)cnc21
  -1	6
COc1ccc(OC)c(NC(=O)NCCCN2CCCC2=O)c1
  1	1
CCCc1cc(C(=O)NCCC2CN(C)CCO2)ccn1 (stereo not given)
  -3	-2
CC1CN(CCC(=O)NCC(c2ccncc2)N2CCOCC2)Cc2cc(Cl)ccc2O1 (stereo not given)
  4	15
O=c1[nH]c(C2CCNCC2)nc2c1nnn2Cc1c(F)cccc1Cl
  -5	-4
CCn1cc(NC(=O)c2ccc3[nH]c4c(c3c2)CCCC4)ccc1=O
  -3	-1
O=C(Oc1coc(CSc2ncccn2)cc1=O)c1ccccc1C(F)(F)F
  -7	-15
CCC(C)N(Cc1ccc(C(O)(c2cccs2)c2cccs2)o1)Cc1ccccc1OC (stereo not given)
  25	0
O=C(c1cc(-c2ccc(Br)cc2)nc2ccccc12)N1CCC(n2c(=O)[nH]c3ccccc32)CC1
  -12	-6
CCC(CC)C(NC(=O)CS(=O)(=O)C(C)C)c1cccs1 (stereo not given)
  8	11
Cc1cc(C)nc(NCc2ccc(-n3cccn3)cc2)n1
  4	4
O=C(Oc1ccc2ccccc2c1)c1cccs1
  -3	-2
C#CCn1c(-c2ccco2)nc2ccccc21
  2	0
Cc1nc(-c2ccc(Br)cc2)sc1C(C)N (stereo not given)
  8	14
Cc1cc(CN(C)C(=O)CC(c2cccc(O)c2)c2ccccc2Cl)on1 (stereo not given)
  5	6
CS(=O)(=O)NCCc1ccc(C(=O)NCC2CCN(C3CC3)C2)s1 (stereo not given)
  3	6
O=C(CCn1nnnc1CN1CCOCC1)NCCCn1ncc2ccccc21
  1	7
CCSC(C)CC1CC(=O)CC(=O)C1C(=O)OC (stereo not given)
  -20	-13
O=c1ccc(-c2ccccc2)nn1Cc1ccccc1F
  1	6
COc1ccc(NC(=O)C2CCN(C(=O)[C@@H]3CCCN3C(=O)Nc3c(F)c(F)c(F)c(F)c3F)CC2)cc1
  3	-9
Cc1cnc(Nc2ccc(OCCN3CCCC3)cc2)nc1Nc1cccc(S(=O)(=O)NC(C)(C)C)c1
  6	8
COc1cn(CC(=O)NCc2ccc(C)cc2)c(CN2CCCCCC2)cc1=O
  3	5
CC1C(=O)N(c2ccc(Oc3ccccc3)cc2)CCN1C(=O)c1cccc(Br)c1 (stereo not given)
  6	2
Cc1ccc(C#N)cc1NC(=O)c1ccc(C(F)(F)F)cc1
  0	4
CCCCNc1nc2c(c(=O)n(Cc3cccc(Br)c3)c(=O)n2C)n1C
  -10	-6
CC1(C(=O)Nc2cnc(-c3ccccc3)nc2)CC(=O)N=C2C=CC=CN21 (stereo not given)
  12	0
O=C(CCc1cn[nH]c1)N1CCCC(N2CCN(Cc3ccc4c(c3)OCO4)CC2)C1 (stereo not given)
  4	8
O=C(OCC(=O)N1CCN(c2ccccc2F)CC1)c1cccc(O)c1
  1	0
Cc1ccc2nsnc2c1S(=O)(=O)N1CCn2cncc2C1
  3	6
CS(=O)(=O)N1CCC(c2nn(Cc3ccc(F)cc3)c(=O)n2-c2cccs2)CC1
  -6	-6
